Assay outcomes (PubChem BioAssay)
FPR binder: ligands of human FPR, also counter-screen for FPRL1 ligands | P21462 | FPR-expressing cells, fluorescent ligand binding, flow cytometry | inhibition, %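 (tested at 6.7 µM)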 | 0.74% of 24,000 active;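 also: 0% = buffer wells and 100% = receptor blocker peptide wells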
Target sequence (P21462 whole entry, looked up): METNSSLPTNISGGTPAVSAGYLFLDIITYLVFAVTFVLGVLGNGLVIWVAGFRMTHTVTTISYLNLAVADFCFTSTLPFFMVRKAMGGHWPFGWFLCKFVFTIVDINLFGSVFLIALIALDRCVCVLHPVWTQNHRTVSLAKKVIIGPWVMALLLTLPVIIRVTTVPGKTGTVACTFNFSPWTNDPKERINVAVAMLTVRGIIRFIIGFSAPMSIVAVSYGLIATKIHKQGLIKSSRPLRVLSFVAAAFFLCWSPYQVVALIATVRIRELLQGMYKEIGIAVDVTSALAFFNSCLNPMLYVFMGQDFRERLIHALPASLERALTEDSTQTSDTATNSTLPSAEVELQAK
FPRL1 binder: ligands of human FPRL1, also counter-screen for FPR ligands | P25090 | FPRL1-expressing cells, fluorescent ligand binding inhibition, flow cytometry | inhibition, %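 (tested at 6.7 µM)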 | 0.3% of 24,000 active | AID 441;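 also: 0% = buffer alone and 100% = receptor blocker peptide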
Target sequence (P25090 whole entry, looked up): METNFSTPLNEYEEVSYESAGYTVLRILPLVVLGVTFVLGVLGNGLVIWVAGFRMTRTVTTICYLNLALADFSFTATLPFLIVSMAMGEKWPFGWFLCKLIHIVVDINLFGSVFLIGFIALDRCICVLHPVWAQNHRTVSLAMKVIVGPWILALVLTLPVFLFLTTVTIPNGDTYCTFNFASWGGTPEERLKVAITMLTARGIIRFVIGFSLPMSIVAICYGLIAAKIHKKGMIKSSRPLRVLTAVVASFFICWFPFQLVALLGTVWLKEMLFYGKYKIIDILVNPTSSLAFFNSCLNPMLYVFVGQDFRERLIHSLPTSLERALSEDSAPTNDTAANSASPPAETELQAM
VCAM-1 up imaging: boosters of cytokine-driven VCAM-1 levels – imaging, high-content imaging, pooled HUVEC, TNFa stimulus (AID 457); Pooled HUVEC, TNFa-induced VCAM-1 immunofluorescence imaging; hits of this screen are not shown here; calls only; 0.2% of 10,000 active;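 active = a top-ranked rise in VCAM-1 staining upheld on image or statistical review; inactive = the rest, including candidates rejected on review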;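 also: compounds tested at 5 µM in the well; cells exposed to compound for 24 hours before fixing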
VCAM-1 imaging: suppression of endothelial VCAM-1 upregulation – imaging, high-content imaging, pooled HUVEC, TNFa stimulus (AID 456). inhibition, % at 5 µM; hits with a dose series show IC50 in µM. 0.2% of 10,000 active. HUVEC TNFa-induced VCAM-1 surface expression, immunofluorescence imaging; numbers were filed only for top-ranked candidate wells;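 active = top tenth filtered wells with inhibition above zero that passed visual or statistical confirmation; inactive = the rest, including hits rejected on review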;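 also: 0% = stimulated vehicle wells and 100% = unstimulated cells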
VCAM-1 down: suppression of endothelial VCAM-1 upregulation – cell-based, plate reader, pooled HUVEC, TNFa stimulus (AID 454) | HUVEC TNFa-induced VCAM-1 surface immunofluorescence, plate reader; numbers were filed only for top-ranked candidate wells | inhibition, % at 5 µM | 0.2% of 10,000 active;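 active = compound among top-ranked inhibitors of TNF-induced VCAM-1 adhesion protein staining, with the hit upheld by image or statistical review; inactive = the rest, including hits rejected on review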;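 also: 0% = TNFa with vehicle and 100% = cells without TNFa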
Active calls of the source: *; i = inactive; . = no result given.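 The calls were made as follows, unless noted: active = mean above 30%; inconclusive = self-fluorescent; inactive = the rest.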

structure	FPR binder	FPRL1 binder	VCAM-1 up imaging	VCAM-1 imaging	VCAM-1 down
COc1cc2c(cc1OC)-c1cc(OCc3cccnc3)nc(=O)n1CC2	22	6	i	i	i
O=C(NC1CCCCCC1)C1c2ccccc2C(=O)N1Cc1ccco1 (configuration not stated)	-1	-3	.	.	.
COC(=O)c1cnn(-c2ccc(C)c(C)c2)c1-n1cccc1	4	-5	.	.	.
Cc1nc2sccn2c1-c1csc(NCc2ccccc2)n1	-2	-11	.	.	.
O=C1C(=O)N(CCN2CCOCC2)C(c2ccccn2)/C1=C(/O)c1ccc(Cl)cc1 (configuration not stated)	14	-6	.	.	.
C=CCn1c(SCC(=O)c2cc(C)n(C(C)COC)c2C)nc2sc(C)c(C)c2c1=O (configuration not stated)	3	-4	i	i	i
CSC1=NCCN1C(=O)Cc1ccc(Cl)cc1	-3	0	.	.	.
CC(O)COc1ccc(/C(=N/O)c2ccccc2)cc1 (configuration not stated)	-3	5	.	.	.
CCCCn1nnc(NC(=O)Cc2ccc(Cl)cc2)n1	2	-2	i	i	i
CCOC(=O)c1sc2nc(NC(=O)C3CCCCC3)sc2c1C	3	-6	i	i	i
CC1=C(C(=O)OCC(C)C)C(c2cccc(F)c2)N2C(=O)C(C)SC2=N1 (configuration not stated)	-9	-5	.	.	.
CCOC(=O)C1CCCN(c2c(Nc3cccc(C)c3)c(=O)c2=O)C1 (configuration not stated)	-6	-5	.	.	.
CCC1CCCCN1C(=O)c1cc2cc(Br)ccc2oc1=O (configuration not stated)	3	0	.	.	.
Cc1nc2ccc(CCO)cc2s1	7	2	i	i	i
Cn1ncc(Cl)c1C(=O)Nc1cccnc1	1	0	.	.	.
COc1ccc(CN2C(=O)C3C4C=CC(C4)C3C2=O)cc1 (configuration not stated)	0	-1	.	.	.
O=C1C2CCCN2C(c2ccccc2F)N1c1ccc(Cl)cc1 (configuration not stated)	-4	-5	.	.	.
CCCn1c(C(O)c2ccc(OCC)cc2)nc2ccccc21 (configuration not stated)	5	-4	.	.	.
O=c1c2ccccc2c(/C=N/n2cnnc2)c(O)n1-c1ccccc1	20	-5	i	i	i
Fc1ccc(Cn2nnc(-c3ccc(CN4CCOCC4)cc3)n2)cc1	-5	-2	i	i	i

More results
structure	FPR binder	FPRL1 binder	VCAM-1 up imaging	VCAM-1 imaging	VCAM-1 down
Cc1c(NC(=O)CCCCCN2C(=O)C3C4C=CC(C4)C3C2=O)c(=O)n(-c2ccccc2)n1C (configuration not stated)	0	-6	.	.	.
CCN(CC)CCn1c(=S)[nH]c2cc3c(cc2c1=O)OCO3	0	0	.	.	.
CCC1Oc2ccc(C)cc2N(CC(=O)NCCc2ccc(OC)c(OC)c2)C1=O (configuration not stated)	2	-1	.	.	.
Cc1c2cnn(-c3ccccc3)c(=O)c2c(C)n1CCCC(=O)N1CCN(C)CC1	1	0	.	.	.
CC1=C(C(N)=O)C(c2ccc3c(c2)OCO3)n2nc(-c3cccc(C)c3)nc2N1 (configuration not stated)	-2	3	.	.	.
Cc1csc(NC(=O)c2cc3c(s2)-c2ccccc2OC3)n1	18	4	i	i	i
COc1cc(OC)cc(C(C)=O)c1	-6	2	.	.	.
COc1ccc(N2CCN(CCNS(=O)(=O)c3cccc4nsnc34)CC2)cc1	-1	-1	i	i	i
CCN(CC)S(=O)(=O)c1ccc(C(=O)NCc2nnc(SCC(=O)OC)n2C)cc1	-3	1	.	.	.
CCOC(=O)N1CCN(C(=O)CSc2nc(-c3cccc(C)c3)ns2)CC1	-1	-1	.	.	.
C=CCn1c(SCC(=O)Nc2ccccc2OC)nnc1-c1ccco1	-4	-1	i	i	i
Cc1noc(C)c1S(=O)(=O)NCc1ccc2c(c1)OCO2	0	-2	.	.	.
CCOc1cccc(Oc2ccc(C(F)(F)F)cn2)c1	11	8	i	i	i
CC1C(c2ccccc2)N(C)CCC12NC(=O)NC2=O (configuration not stated)	-2	-2	i	i	i
CCNc1oc(COc2ccccc2F)nc1C#N	1	-1	i	i	i
COc1ccc(S(=O)(=O)N2CCC(C(N)=O)(N3CCCCC3)CC2)cc1	1	1	.	.	.
O=[n+]1c2c(n([O-])c3cc(F)c(N4CCCC4)cc31)CCCC2	11	0	.	.	.
CCOC(=O)N1CCN(C(=O)CSc2nnc(C3COc4ccccc4O3)o2)CC1 (configuration not stated)	-2	5	.	.	.
Cc1ccc2c(c1)NC(=O)C(CC(=O)NCCN(CC(C)C)CC(C)C)O2 (configuration not stated)	-1	2	i	i	i
Cc1sc2ncnc(Oc3ccc(-n4ccnc4)cc3)c2c1C	-6	0	i	i	i

Additional structures.
structure	FPR binder	FPRL1 binder	VCAM-1 up imaging	VCAM-1 imaging	VCAM-1 down
CCOc1ccc(C2C3=C(CCCC3=O)Nc3nc(C(F)(F)F)nn32)cc1OC (configuration not stated)	5	2	.	.	.
CCC(=O)N1CCCc2cc(S(=O)(=O)N3CCN(c4ccccn4)CC3)ccc21	-2	-7	.	.	.
Cc1ccc(Cl)cc1N1CCN(Cc2nc3c(c(=O)[nH]c(=O)n3C)n2CCc2ccccc2)CC1	1	-8	.	.	.
CCCCOCCCNC(=O)c1ccccc1OCC	1	-1	i	i	i
Cc1cc(C)nc(NS(=O)(=O)c2cccs2)c1	5	2	.	.	.
COC(=O)CCC(=O)Nc1ccc(S(=O)(=O)N2CCCCCC2)cc1	-3	-2	i	i	i
Cn1c(=O)[nH]c(=O)c2c1nc(CN1CCN(c3ccc(F)cc3)CC1)n2CCCc1ccccc1	5	8	.	.	.
COC(=O)C1=C(NC(=O)c2ccc(C)c(C)c2)CCS1	2	-1	.	.	.
COc1ccc(C(N)CCc2ccc(C)o2)cc1 (configuration not stated)	-3	2	.	.	.
CCCN(CCC)C(=O)c1ccc2c(c1)N(Cc1ccccc1)C(=O)CS2=O (configuration not stated)	-5	-5	.	.	.
Cc1ccc2c(c1)-c1c(cnn1CC(=O)N(CCC#N)c1ccccc1)CO2	9	1	.	.	.
CC1CCC(NC(=O)CN2C(=O)C3CCCN3c3ncc(Cl)cc32)CC1 (configuration not stated)	-2	-9	.	.	.
CCCCN(c1ccccc1)S(=O)(=O)c1ccc2c(c1)CCN2C(=O)CCC(=O)O	-1	-1	i	i	i
O=C(O)CCN(CCC(=O)O)c1nnc(SCc2ccccc2)s1	2	-2	i	i	i
COc1ccc(N(C)C(=O)CCC(=O)Nc2ccc3nc(N4CCOCC4)cc(C)c3c2)c(OC)c1	0	-10	.	.	.
CCOc1ccccc1N1C(=O)c2ccc(C(=O)Nc3cccnc3)cc2C1=O	11	4	i	i	i
Cc1ccc(CSC2=NCCN2C(=O)c2ccco2)cc1	-8	1	i	i	i
COC(=O)/C(=C1/Oc2cc3c(cc2S1)OCO3)C(F)(F)F	-6	-8	.	.	.
CCOC(=O)Cn1c(=O)oc2cc(S(=O)(=O)NCc3ccccn3)ccc21	-18	-21	.	.	.
CC1(C)NC(=O)N(CCOc2cccc(Cl)c2Cl)C1=O	9	0	i	i	i

Continuation.
structure	FPR binder	FPRL1 binder	VCAM-1 up imaging	VCAM-1 imaging	VCAM-1 down
CCOC(=O)N1CCN(C(=O)c2cn(-c3ccc(C)c(C)c3)c(=O)c3ccccc23)CC1	16	2	.	.	.
CCCCOC(=O)Cn1cnc2ccc(Br)cc2c1=O	7	5	.	.	.
Cc1ccc(S(=O)(=O)NC(CC(=O)O)c2ccccc2)c(C)c1 (configuration not stated)	-2	2	.	.	.
CCOCCCNc1nc(=S)[nH]c2cc(OC)c(OC)cc12	-4	2	.	.	.
O=C1CC(c2ccc3c(c2)OCO3)Sc2nc3ccccc3n21 (configuration not stated)	7	10	.	.	.
Cc1[nH]nc(N=CC2=C(O)CC(C)(C)CC2=O)c1-c1ccc(Cl)cc1	0	-2	i	i	i
COc1ccc(S(=O)(=O)NCCC(=O)NCc2ccccc2)cc1	-3	-3	.	.	.
COc1ccc(S(=O)(=O)NCCc2csc(C)n2)cc1C	2	4	.	.	.
O=C(NCCc1ccccc1)C1CCCN(S(=O)(=O)c2cccnc2)C1 (configuration not stated)	1	4	.	.	.
COc1ccc(OC)c(NC(=O)Cc2coc3ccc(C)cc23)c1	8	-1	i	i	i
Cn1c(=O)c2c([nH]c(=O)n2C)n(C)c1=O	2	-2	i	i	i
Cc1cc(=O)oc(C)c1C(=O)NCc1c(F)cc(F)cc1F	-9	-5	.	.	.
CCn1c(=N)n(CC(O)c2ccco2)c2ccccc21 (configuration not stated)	-3	11	i	i	i
O=C(O)c1cc(Cl)c(Cl)cc1C(=O)N1CCCC1	0	-5	i	i	i
CCOC(=O)c1oc2ccccc2c1NC(=O)COc1cccc(OC)c1	-3	-3	.	.	.
CN(C(=O)c1cccc(N2C(=O)C3CC=CCC3C2=O)c1)C1CCCCC1 (configuration not stated)	3	3	.	.	.
c1ccc(-c2nc3cc(Oc4ccc5oc(-c6ccccn6)nc5c4)ccc3o2)nc1	3	-1	.	.	.
COc1cccc(-c2nc(CS(=O)CC(=O)NCc3ccccc3)c(C)o2)c1 (configuration not stated)	-3	-1	.	.	.
C/C(=N\n1nnnc1Nc1ccccc1)c1ccc(N)cc1	-4	-2	.	.	.
Cc1cccn2c(=O)c(C=Nc3ccc(Cl)cc3)c(NCCO)nc12	3	-11	.	.	.

Next section.
structure	FPR binder	FPRL1 binder	VCAM-1 up imaging	VCAM-1 imaging	VCAM-1 down
COCCCNC(=O)CCn1c(=O)c2ccccc2n(CC(=O)Nc2ccccc2C)c1=O	4	0	.	.	.
Cc1[nH]c2ccccc2c1Cc1nnc(SCC(=O)NCc2ccco2)o1	-2	7	i	i	i
CCc1nccn1S(=O)(=O)c1ccc(OC)c(OC)c1	-7	3	.	.	.
COc1ccc(C(=O)Cn2nnc(-c3cccs3)n2)cc1	-9	-7	i	i	i
COC(=O)c1cccnc1-n1c(=O)c2cccnc2n(Cc2cccc(OC)c2)c1=O	-2	2	.	.	.
COc1cccc(NC(=O)CSc2nc3ccccc3c(=O)n2CCCC(=O)N2CCCC2)c1	2	1	.	.	.
O=C(c1ccc(S(=O)(=O)N2CCC(c3nc4ccccc4s3)CC2)cc1)N1CCOCC1	-2	-2	i	i	i
COCCCNC(=O)CCC(=O)Nc1ccc2nc(N3CCOCC3)cc(C)c2c1	3	10	.	.	.
CN1CCOc2cc(S(=O)(=O)Nc3ccc(F)cc3)ccc21	3	-12	.	.	.
COc1ccc2c(c1)OC13CCN(C)CC1C2C(C(=O)c1ccc(F)cc1)C(=O)N3 (configuration not stated)	-7	-3	.	.	.
Cc1cccc(C)c1NC(=O)Cn1c(=O)n(CCC(=O)NCc2ccco2)c(=O)c2sccc21	-4	8	.	.	.
Cc1cc(N2CCCC2)n2nc(C)nc2n1	4	4	.	.	.
COc1ccc(Cl)cc1NC(=O)CSc1nnc(Cc2cccn2C)n1-c1ccc(F)cc1	-1	-5	.	.	.
CCOC(=O)c1ccc2ncc(C(=O)OCC)c(NCCN(C)C)c2c1	-4	-1	i	i	i
CC1CCCN(C(=O)C(Cc2ccccc2)n2cccc2)C1 (configuration not stated)	0	0	.	.	.
COc1ccc(OC)c(C2/C(=C(/O)c3ccc(C)cc3)C(=O)C(=O)N2Cc2ccco2)c1 (configuration not stated)	0	-6	.	.	.
c1ccc(-c2nc3nonc3c3nc4ccccc4n23)cc1	-6	-3	i	i	i
COc1cc2nc(=S)n3[nH]c(CCn4nc(C)cc4C)nc3c2cc1OC	5	-1	.	.	.
CCOC(=O)CCNC(=O)CNC(=O)OCc1ccccc1	-7	16	.	.	.
CC1CCN(S(=O)(=O)c2ccc3[nH]cc(C(=O)NCCN4CCOCC4)c(=O)c3c2)CC1	-6	-2	i	i	i

Remaining list, next part
structure	FPR binder	FPRL1 binder	VCAM-1 up imaging	VCAM-1 imaging	VCAM-1 down
O=C(O)CCc1ccc(-c2ccc(Br)cc2)n1CC(=O)O	7	10	i	i	i
CCOC(=O)N1CCN(C(=O)C(CC)n2nc(C)c3sc4ccccc4c3c2=O)CC1 (configuration not stated)	2	4	.	.	.
CCC(C(=O)N1CCN(c2ccccn2)CC1)n1nc(C)n2c(cc3occc32)c1=O (configuration not stated)	1	3	.	.	.
Cc1ccc(C)c(N2CCN(C(=O)c3ccc(NS(=O)(=O)c4c(C)noc4C)cc3)CC2)c1	-4	2	.	.	.
COc1ccc(S(=O)(=O)Nc2ccc(Cl)cn2)c(C)c1C	-1	-3	i	i	i
CCOc1cc(S(=O)(=O)NCc2ccc3c(c2)OCO3)ccc1F	0	4	i	i	i

Not all compounds are listed; the hit share may differ from the screen's.
